# MbtI inh = blocks the Mycobacterium tuberculosis siderophore enzyme MbtI; actives 0.89% (n = 100,000); P9WFX0; purified MbtI enzyme, fluorescence intensity read-out; AID 493033; inhibition, %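 (about 17 µg/mL by stock and volumes)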;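 active means above 50% in both replicates, above 80% if mildly self-fluorescent; inactive means the rest, strongly fluorescent compounds included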;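 further: 0% = mean of negative and 100% = mean of positive controls; one replicate is shown; some compounds called inactive have numbers as strong as hits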
# Target sequence (P9WFX0 whole entry, looked up): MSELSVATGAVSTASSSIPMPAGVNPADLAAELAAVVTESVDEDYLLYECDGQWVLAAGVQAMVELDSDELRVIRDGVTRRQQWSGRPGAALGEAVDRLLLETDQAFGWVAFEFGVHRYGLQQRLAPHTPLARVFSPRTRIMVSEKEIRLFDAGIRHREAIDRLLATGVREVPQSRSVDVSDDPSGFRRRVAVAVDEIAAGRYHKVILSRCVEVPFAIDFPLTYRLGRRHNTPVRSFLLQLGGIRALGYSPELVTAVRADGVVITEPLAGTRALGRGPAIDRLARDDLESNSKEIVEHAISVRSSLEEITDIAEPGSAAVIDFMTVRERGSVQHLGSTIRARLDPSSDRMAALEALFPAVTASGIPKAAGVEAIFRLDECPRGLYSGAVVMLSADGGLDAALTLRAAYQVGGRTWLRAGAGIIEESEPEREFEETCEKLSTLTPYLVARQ
# Polio RdRp inh = poliovirus RNA polymerase inhibition; P03300; poliovirus polymerase elongation, fluorescence polarization; hits give low values; % elongation, % (compound at 16.7 µg/mL); actives 0.66% (n = 150,000); AID 588519; in the data active means % elongation below about 90%; further: some results filed as inactive read as strong as hits
# Target sequence (P03300 1749-2209 limits assumed): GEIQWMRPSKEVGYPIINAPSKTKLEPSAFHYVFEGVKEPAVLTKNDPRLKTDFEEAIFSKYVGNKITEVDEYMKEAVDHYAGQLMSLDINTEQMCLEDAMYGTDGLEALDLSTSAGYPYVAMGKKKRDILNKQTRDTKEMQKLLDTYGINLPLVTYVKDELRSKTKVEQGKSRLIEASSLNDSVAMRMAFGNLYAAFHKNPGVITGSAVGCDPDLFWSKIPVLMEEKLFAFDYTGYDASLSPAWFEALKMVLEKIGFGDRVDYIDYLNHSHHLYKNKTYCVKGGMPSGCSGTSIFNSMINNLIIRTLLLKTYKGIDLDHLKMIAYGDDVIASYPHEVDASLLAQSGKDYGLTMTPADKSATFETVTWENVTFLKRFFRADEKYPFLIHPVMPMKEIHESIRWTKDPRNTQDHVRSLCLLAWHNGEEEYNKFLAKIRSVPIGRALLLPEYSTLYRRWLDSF
# MenB inh = Mtb MenB enzyme inhibition | actives 0.43% (n = 100,000) | inhibition, %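 (about 12 µg/mL by stock and volumes)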 | MenB enzyme assay, absorbance read-out; some hits fall short of the stated cut;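 active means mean of two replicates above 30%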;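 further: 0% = no compound and 100% = wells with inactive enzyme; the first replicate is given; strong numbers were not always called active; inactives centre near -10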
# Polio RdRp inh intensity = also measured in Polio RdRp inh; calls as there; % elongation; measured here: total intensity read-out; formula for this scale not given here;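 total fluorescence in place of polarization; lower means less elongation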
# Numbers without * were called inactive; i = inactive; . = no result given; & = joins results of further samples; ! = not active in a repeat. Compounds as they come. About 1.8% of those tested had a hit in this group.
SMILES,MbtI inh,Polio RdRp inh,Polio RdRp inh intensity,MenB inh
CC12CCC(O)CC1=CCC1C2CCC2(C)/C(=N/N)CCC12 (configuration not stated),-2,.,.,-5
COc1ccc(CN(C)C(=O)c2cc(C)on2)c(OC)c1,-6,102,100,-3
CSc1nc2n(n1)C(=O)CC(C)(C)N2,-4,100,95,-19
COc1ccc(-c2noc(CNC(=O)NC3CCCCC3)n2)cc1,-1,104,102,-5
COc1ccc(C2OC(COc3ccccc3C)=NN2C(C)=O)cc1OC(C)=O (configuration not stated),-4,103,96,-18
N#Cc1c(N)n(-c2ccc(S(N)(=O)=O)cc2)c2nc3ccccc3nc12,103,140,163,-85
CC(=O)Nc1nc(C23CC4CC(CC(C4)C2)C3)cs1,10,104,110,-17
CCN(CC)C(=S)CSc1nc(-c2ccccc2)cc(-c2ccco2)c1C#N,.,79,170,2
CN(C)c1nc(NCc2ccccc2)nc(Nc2ccc(OC(F)(F)F)cc2)n1,.,108,109,-4
O=C(Cc1c(Cl)cccc1Cl)NC1=NCCS1,-3,108,109,-6
O=C(Nc1ccc2[nH]c(=O)[nH]c2c1)c1cc2ccccc2o1,-1,108,100,-45
CC1=NN(C2CCS(=O)(=O)C2)C(=O)C12Cc1c(C)nn(-c3ccccc3)c1N1CCCCC12 (configuration not stated),15,.,.,-33
CCN(CC)c1ccc2cc(-c3nc4ccccc4[nH]3)c(=O)oc2c1,-14,73,187,.
COc1cc(C=Nc2c(C)n(C)n(-c3ccccc3)c2=O)ccc1OC(=O)c1ccco1,5,.,.,5
CC(Oc1ccccc1F)C(=O)NCc1ccc2c(c1)OCO2 (configuration not stated),.,103,97,2
Oc1ccc(Br)cc1CNCc1ccccc1,-6,103,103,-24
COc1ccc(CCN(C)C2CC(=O)N(c3ccccc3)C2=O)cc1OC (configuration not stated),71,105,103,-15
C=CCCN1CC2C[C@@H](C1)Cn1c2cccc1=O,.,105,109,-7
CCC(=O)NCC(c1ccc(N(C)C)cc1)N1CCOCC1 (configuration not stated),-12,99,102,9
CCOC(=O)C(Cc1ccccc1Cl)Sc1nnc(N)s1 (configuration not stated),4,.,.,-24
O=c1c2ccccc2[nH]c(=S)n1CCC1=CCCCC1,5,104,98,-32
CC(Oc1ccccc1)C(=O)N1CCN(c2ccc(N3CCCCC3)nn2)CC1 (configuration not stated),-15,101,100,-3
CSc1nnc(-c2ccccc2)n1N,-6,103,104,-22
COC(=O)c1sccc1-c1ccc(/C=N/OCc2cc(F)cc3c2OCOC3)o1,8,104,106,-15
CCOc1nc2ccccc2c(=O)[nH]1,.,98,104,-2

# Next part.
SMILES,MbtI inh,Polio RdRp inh,Polio RdRp inh intensity,MenB inh
Cc1ccc(-c2csc3ncn(-n4c(C)ccc4C)c(=O)c23)o1,33,102,107,.
CC(C)C(NS(=O)(=O)c1ccc(Br)s1)C(C)C,-1,101,100,-27
COc1ccc(OC)c(C(c2sc3nc(C)nn3c2O)N(C)Cc2ccccc2)c1 (configuration not stated),8,100,101,4
O=C(NCCc1c[nH]c2ccccc12)c1ccc2c(c1)NC(=O)C1CCCN21 (configuration not stated),0,107,108,-2
CN=c1scc(-c2ccc(NC(C)=O)cc2)n1C,-4,96,101,-29
CN(c1cnn(-c2ccc(Cl)cc2Cl)c(=O)c1Cl)N1CC(C)(C)C1=O,19,103,91,-29
Cn1c(=O)c2c(nc(SCC(=O)N3CCCCC3)n2C)n(C)c1=O,.,107,113,-26
CCNc1nc(NCC)n2c(SCC(=O)N3CC4(C)CC3CC(C)(C)C4)nnc2n1 (configuration not stated),-3,102,101,-14
COc1ccccc1CNC(=O)CN1NS(=O)(=O)c2ccccc2C1=O,-29,103,98,-24
CC(C(=O)O)c1ccc(-c2ccccc2)c(F)c1 (configuration not stated),-24&-7,101&102,101&101,-2&0
CC1(C)CC(=O)C=C(Nc2ccc3c(c2)OCCO3)C1,15,102,98,.
O=C(CCCN=C1NS(=O)(=O)c2ccccc21)Nc1ccccc1N1CCOCC1,0,103,103,-6
Cc1cc(C(=O)COc2ccc3oc4ccccc4c3c2)c(C)n1CC1CCCO1 (configuration not stated),2,103,107,1
CCN1C(=O)C(C)S/C1=C(/C#N)C(=O)NCc1ccco1 (configuration not stated),29,100,99,19
CCN(CC(=O)Nc1ccccc1OC)Cc1cc(=O)n2c(-c3ccccc3)csc2n1,4,102,105,3
COCCCn1c(SCc2cc(C(=O)OC)c(C)o2)nnc1-c1ccccc1Cl,8,97,100,-15
O=C(O)Cc1sc(-c2ccccn2)nc1-c1cccs1,7,101,105,-13
CNC(=O)NC(=O)CSc1nc2ccccc2s1,18,98,103,10
CN(C)N=Nc1ccccc1C(=O)NCc1ccc(Cl)cc1,-9,108,105,-11
Cn1cc(/C=N/NC(=O)CC#N)c2ccccc21,7,98,101,-36
COCCn1c(-c2ccc3c(c2)NC(=O)CO3)csc1=Nc1ccccc1,1,105,110,-26
CCOC(=O)c1c(CN(C)C)n(-c2ccccc2)c2cc(Br)c(OC)cc12,.,101,105,-3
CCCCc1ccccc1NC(=O)NCCC,-7,100,101,0
CC(C)C(=O)Nc1ccc(NC(=O)C(C)(C)C)cc1,-20,100,102,-32
C1CCN(CC2COC3(CCCC3)O2)CC1 (configuration not stated),-1,102,99,9

# Continuation.
SMILES,MbtI inh,Polio RdRp inh,Polio RdRp inh intensity,MenB inh
O=C1CC(N2CCSCC2)C(=O)N1CCc1ccccc1 (configuration not stated),7,99,102,6
Cn1c(Cc2ccccc2)n[nH]c1=S,52&0,101&105,100&106,-26&-10
NCC(O)COCc1ccco1 (configuration not stated),-2,102,97,.
CCCCC(CC)CN=C(N)NC(N)=NCCCCCCN=C(N)NC(N)=NCC(CC)CCCC (configuration not stated),55*!,98&100,99&104,-4&2
CCOC(=O)CC1C(=O)NCCN1C1CCCCC1 (configuration not stated),-12,100,103,6
COc1nc(NCCO)nc(Nc2ccc(I)cc2C)n1,-9,.,.,-10
COc1ccc(C=C2C(=O)OC(C)(C)OC2=O)cc1OC,10,104,102,-10
O=C(Cc1ccccc1)c1ccccc1C(=O)NCc1cccs1,.,108,103,-87
O=C(Oc1ccccc1)c1cc(-c2ccccc2)c(C(F)(F)F)s1,-5,101,104,-17
CCOC(=O)c1c(C)csc1NC(=O)CC(=O)C(F)(F)F,14,101,105,-21
OC(C#Cc1ccccc1)C#Cc1ccccc1,24,100,95,-3
CCOc1ccc(NC(=O)Cn2c(=O)n(C3CCCC3)c(=O)c3cc(OC)c(OC)cc32)cc1,-1,101,101,7
Cc1ccc(C)c(C(=O)CSc2nnc(C)s2)c1,-11,102,102,-1
Cc1ccc(NC(C#N)c2c(C)[nH]c(=O)[nH]c2=O)cc1 (configuration not stated),i,98,103,-30
N#CCSc1[nH]c(=O)c(-c2nc(-c3ccccc3)cs2)cc1C#N,-17,104,111,-58
Cc1cccc(NC(=O)CC(NCc2ccco2)C(=O)O)c1C (configuration not stated),-4,105,106,-11
Cc1ccc(-c2cc(-c3ccccc3)nc(N3CCCC3)n2)cc1,32,103,101,-51
O=C(CCN1C(=O)c2ccccc2C1=O)Oc1ccc2c3c(c(=O)oc2c1)CCC3,-27,100,106,-13
Cc1ccc(OC(=O)N(C)C)c(CN(C)C)c1,-4,104,103,-7
COc1cc(/C=N\n2c(C)n[nH]c2=S)cc(OC)c1OC,77,100,97,-18
COc1cc(C)nc(NC(=O)NS(=O)(=O)c2ccccc2NC(=O)C(F)(F)F)n1,.,99,84,3
O=C(Nc1ccc(F)cc1)c1oc2ccccc2c1CSc1ncn[nH]1,22,102,97,-19
COc1ccc(C(=O)NCC2COc3ccccc3O2)cc1OC (configuration not stated),-12,103,102,-24
COC(=O)Nc1ccc(S(=O)(=O)N(C)C)cc1,-1,101,107,-23
COC(CN(C)C(=O)C1CCC(CNS(=O)(=O)c2ccc(Cl)cc2)CC1)OC (configuration not stated),2,100,102,-5

# (cont.)
SMILES,MbtI inh,Polio RdRp inh,Polio RdRp inh intensity,MenB inh
O=C(CCCC(=O)c1ccccc1)Nc1nc2ccc(Br)cc2s1,3,101,96,-11
N#Cc1cnc(N2CCN(c3ccccc3)CC2)nc1N,20,102,96,-7
CC1(C)CC(=O)C/C(=N/Nc2nc3ccccc3s2)C1,53,104,102,-30
CCc1cc(-c2[nH]ncc2-c2cnn(-c3ccccc3)c2)c(O)cc1O,15,104,103,-16
O=C(O)c1csc(Br)c1Br,-3,102,102,1
C/C(=N\NS(=O)(=O)c1ccc(Br)cc1)c1cccs1,4,99,104,-44
S=C(NCc1ccco1)N1CCOCC1,7,101,101,-16
Cc1cc(O)c(Cc2cc(Cl)c3cccnc3c2O)c(=O)o1,-3,133,192,-48
C1CCN=C(NCC2(N3CCCCC3)CCCCC2)CC1,-4,103,112,-11
COc1cc(S(=O)(=O)N2CCN(C)CC2)ccc1Cl,-7,101,101,14
CN(C)C(=O)/C=C/c1ccc2c(c1)OCO2,-103,102,103,16
O=C1c2ccccc2C(=O)N1CC(c1ccco1)N1CCCCC1 (configuration not stated),1,.,.,4
N/C(CN1CCCC1=O)=N\OC(=O)c1ccccc1Cl,-10,100,101,-1
Cc1ccccc1OCc1nc(SCC(=O)NC2CCCC2)n[nH]1,4,.,.,-7
CCNc1nc(C)c(C(=O)O)s1,6,100,100,0
Cc1cccc2cc3c(nc12)SC(=NCc1ccco1)N(Cc1cccs1)C3,5,104,103,5
COC(=O)c1ccc(S(=O)(=O)Nc2ccc3c(c2)C(=O)OC3)n1C,-6,98,105,4
C=CCc1c(C)nc(SC)[nH]c1=O,27,100,102,31
Cc1coc2cc3oc(=O)c(CC(=O)NCc4ccco4)c(C)c3cc12,83,102,98,21
COc1ccccc1NC(=O)CC(O)(C(F)(F)F)C(F)(F)F,-9,100,103,-4
Cc1ccc(C(=O)CCC(=O)Nc2nnc(C)s2)cc1,-4,100,106,4
N#CCCn1ccc(NC(=O)c2ccc(Cl)cc2)n1,-3,101,95,.
Cc1cc(C)n(CC(O)CN(c2ccccc2)S(=O)(=O)c2ccccc2)n1 (configuration not stated),2,101,100,-1
CSc1nnc2c3cc(C)ccc3n(C)c2n1,1,100,100,-10
CN1C(=O)/C(=C2/Sc3ccc(Cl)cc3N2C)SC1=S,-4,103,102,0

# The results go on.
SMILES,MbtI inh,Polio RdRp inh,Polio RdRp inh intensity,MenB inh
O=S(=O)(CCN1CCOCC1)c1ccc(Oc2ccc(S(=O)(=O)CCN3CCOCC3)cc2)cc1,-5,99,102,5
CCc1ccc(NC(=O)CCn2cccc2)cc1,16,101,93,-15
CC(OC(=O)c1cccc(-n2cnnn2)c1)C(=O)Nc1ccccc1F (configuration not stated),12,101,109,0
COc1ccccc1C(=O)NCCC(=O)Nc1ccc(S(N)(=O)=O)cc1,0,99,95,-20
COc1ccc(Br)cc1CSc1nnc(-c2cccs2)n1C1CC1,31,106,105,-26
CN(C)S(=O)(=O)c1cccc(C(=O)Nc2nc3ccc(F)cc3s2)c1,157,105,101,-9
CC1(C)CC(=O)C2=C(C1)N(c1ccccc1C(F)(F)F)C(=O)CC2c1cccs1 (configuration not stated),.,104,104,-26
CCNC(=S)N1CCN(S(=O)(=O)c2ccc(Cl)cc2)CC1,-19,99,103,0
CC(Sc1ncnc2c1cnn2-c1ccccc1)C(=O)Nc1ccnn1C(C)C (configuration not stated),12,103,101,-7
CC(=O)Nc1nc(NC(C)=O)n(-c2ccccc2)n1,17,103,99,4
COc1ccc(C(=O)CSc2n[nH]c(=O)n2Cc2ccco2)cc1,3,108,107,11
Cc1nc(NCCNC(=O)c2cccs2)c2c3c(sc2n1)CCCC3,-10,101,100,17
C/C(=N\O)C(C)(C)Nc1ccc(Cl)cc1,-10,103,112,16
CC(=O)NCCOc1cccc2cccnc12,.,101,98,-7
CC(=O)Nc1sc2c(c1C(=O)OCC(=O)c1cc(C)n(C3CC3)c1C)CCCC2,1,105,107,1
COc1ccc(C(=O)Nc2ccn(-c3ccccc3)n2)c(OC)c1,47,100,102,.
Cc1ccc(CC(S)C(=O)O)cc1C (configuration not stated),-6,.,.,-10
Cc1cccc(OCc2nnc3n2-c2ccccc2SC3)c1,19,105,103,-13
Cc1ccc(-n2c(C)cc(C(=O)O)c2C)cc1,-4,102,99,.

# Screening results from PubChem.
